Vaccinia Venus – qHTS for Stage-Specific Inhibitors of Vaccinia Orthopoxvirus: Venus Reporter Primary qHTS; Vaccinia virus Venus reporter expression, fluorescence; Potency, µM (titrated, usually from 36.5 µM), without a hit: top-dose activity change, negative = inhibition, usual class: inhibitors; 330,000 tested, 0.46% active; AID 720580, 2013; active means well fitted inhibition curve with a large enough effect; inconclusive means small, poorly fitted or top-dose-only effect; inactive means no such curve, though single readings can be large or run the other way; tested in A549 cells; further: nearly all actives have a fitted effect of over 30% in size; inactives centre near -10
VACV mCherry inh – qHTS for Stage-Specific Inhibitors of Vaccinia Orthopoxvirus: mCherry Reporter Primary qHTS; 310,000 tested, 0.63% active; Vaccinia virus mCherry reporter infection, fluorescence; about a quarter of the inactives have no number; Potency, µM (highest dose often 36.5 µM), inactives show at the highest dose activity change, negative = inhibition, usual class: inhibitors; AID 720579, 2013; active = well fitted inhibition curve with a large enough effect; inconclusive = small, poorly fitted or top-dose-only effect; inactive = no such curve, though single readings can be large or run the other way; tested in A549 cells; further: nearly all actives have a fitted effect of over 35% in size; inactives centre near -10
The depositor's hits bear a star; i = inactive; ? = inconclusive; . = no result given; & = joins results of further samples; [ ] = another dose, or the depositor's remark. On the % scale 0 is the no-effect control and ±100 the full control effect; potency means the concentration at half of the fitted maximal effect.

SMILES	Vaccinia Venus	VACV mCherry inh
Cc1cc(C)n2c(SCc3c(C)noc3C)nnc2n1	-18.7%	.
COC(=O)N(c1ccccc1)P1(=S)OCCO1	-14.2%	-22.5%
CC(=O)NC(=S)Nc1ccc(-c2nc3ccc(C)cc3s2)cc1	-4.7%	-14.4%
O=C(O)CCn1c(=S)oc2ccccc21	-7.2%	i
Cc1ccc(-n2nc(CO)c(C(=O)NCCO)n2)cc1	-8.7%	-9.2%
COc1ccc(C)cc1NC(=O)C(Sc1nnc2ccccn12)c1ccccc1 (stereo unspecified)	-17.7%	?
CCOc1ccc(CCNC(=O)c2cccc(NC3=NC4CS(=O)(=O)CC4S3)c2)cc1OCC (stereo unspecified)	-16.2%	i
O=C(CSc1nncs1)NCc1ccc(F)cc1	0.7%	-0.4%
COCCN(C(=S)Nc1ccc(OC)cc1)C1CCN(C(C)C)CC1	-10.8%	-15.9%
O=C(NC(NCc1ccccc1)C(Cl)(Cl)Cl)c1cccnc1 (stereo unspecified)	-13.1%	-9.4%
Cc1ccc(/C=N/NC(=O)c2nc3nc(C)cc(C)n3n2)cc1	-6.2%	-8.8%
COc1cccc(CN2CCN(c3cccc(C(F)(F)F)c3)CC2)c1OC	-17.6%	i
COC1(C2=NCCN2)COc2ccccc2O1 (stereo unspecified)	-21.5%	-2.4%
CC(c1nc2ccccc2o1)N1C(=O)c2ccccc2C1=O (stereo unspecified)	-2.5%	-7.2%
N=c1c(C(=O)NCC2CCCO2)cc2c(=O)n3ccccc3nc2n1CCCO (stereo unspecified)	15.1%	-3.4%
COc1ccccc1C(=O)N1[C@@H](C(C)C)COc2cc(Br)ccc2S1(=O)=O	-15.6%	-14.2%
COc1ccc(N(C)S(=O)(=O)c2cccc(C(=O)Nc3ccc4c(c3)OCCO4)c2)cc1	-17.9%	i
O=C(CCSCc1ccc(Cl)cc1)NCCc1ccccc1	-8.2%&-19.0%	-15.2%
Cc1ccc(S(=O)(=O)NC(Cc2c[nH]c3ccccc23)C(=O)O)cc1 (stereo unspecified)	-5.6%	-9.6%
C[C@H]1CN(Cc2ccccc2)C(=O)[C@@H]1CC(=O)Nc1ccccc1	-9.1%	-10.9%
COc1ccc(OC)c(NC(=O)c2nnn(CC(=O)Nc3ccc(C(C)C)cc3)c2N)c1	-11.3%[7.34 µM]	-17.1%[7.34 µM]
CCN(CC)C(=O)CSc1nc2cc(S(=O)(=O)N3CCOCC3)ccc2n1CC	-10.7%	i
COc1ccc(C(=O)NCCCSC)cc1OC1CCN(C(C)C)CC1	-17.3%	-18.2%
Cc1ccc(S(=O)(=O)N(C)C)cc1NC(=O)COC(=O)c1ccc(Cl)cc1	-0.5%	i
O=C(Cc1ccccc1)Nc1nnc(SCC(=O)NC2CCCC2)s1	-0.3%	9.7%
Following part:
SMILES	Vaccinia Venus	VACV mCherry inh
O=C(CSc1nnc(COc2ccc(Cl)cc2)n1Cc1ccco1)N1CCNC1=O	-0.8%	-25.4%
COc1ccccc1C(=O)Nc1nnc([C@H]2C[C@H](O)[C@@H](CO)O2)s1	-1.9%	-11.9%
CCOc1ccc(CCNC(=O)COC(=O)C2CCN(c3ccc(C(F)(F)F)cn3)CC2)cc1OCC	-5.6%	-8.1%
NC(=O)c1ncn([C@@H]2O[C@H](CNCc3cnc(N4CCOCC4)s3)[C@@H](O)[C@H]2O)n1	-11.3%	-11.9%
COCCN(C(=O)COC(=O)CSc1ccc(Cl)cc1)c1c(N)n(CC(C)C)c(=O)[nH]c1=O	-13.2%	i
Cc1ccc(C(=O)N2CCCC(c3ccc(Cl)cc3)=N2)cc1	-7.6%	i
Cc1ccc(CN2CCN(C(=O)CCC(=O)Nc3nnc(C(C)C)s3)CC2)c(C)c1	?	-12.8%
Cc1ccccc1CCNC(=O)C1CCC(=O)N(Cc2ccc(Cl)cc2)C1 (stereo unspecified)	-12.3%	-23.7%
CCc1nc(SCC(=O)Nc2cc(C)ccc2OC)c2c(C)c(C)sc2n1	-2.9%	7.4%
CNc1ccccc1C(=O)OCC(=O)N(CCOC)c1c(N)n(CC(C)C)c(=O)[nH]c1=O	-16.6%	-25.4%
O=C(/C=C\c1ccco1)Nc1cc([N+](=O)[O-])ccc1F	?	?
CCc1ccc(CNC(=O)c2cc3c(=O)n(CC)c4ccccc4c3s2)cc1	-13.8%	-3.4%
COc1ccc(CCNC(=O)CN2C(=O)COc3ccccc32)cc1OC	-2.1%	-4.1%
CCC(CC)C(=O)Nc1ccc2nc(SCc3ccccc3)sc2c1	-7.4%	-21.5%
COc1cc(CNc2cccc(C(=O)O)c2)cc(Br)c1OCC(=O)NC(C)(C)C	-13.1%	-14.2%
O=C1CC(Cc2ccccc2)C(=O)N1c1ccccn1 (stereo unspecified)	-2.2%[7.34 µM]	i[7.34 µM]
Cc1cc(NC(=O)CCC(=O)N(Cc2ccco2)C(C(=O)NC2CCCCC2)c2ccccc2)no1 (stereo unspecified)	-13.3%	.
Cc1ccn(CCC(=O)N2CCCC(N3CCN(c4ccccc4C)CC3)C2)n1 (stereo unspecified)	-22.7%	?
O=C(Nc1ccccc1Cl)c1ccc(S(=O)(=O)N2CCOCC2)cc1	-5.6%	-11.0%
COC(=O)C(C(=O)OC)C(C(=O)OC)C(C(=O)OC)C(=O)OC	-8.3%	-7.4%
O=C(Nc1ccccc1C(=O)N1CCOCC1)C1COc2ccccc2O1 (stereo unspecified)	-14.3%	-16.4%
Cc1ccc(Nc2nc(N)nc(-c3oc4ccccc4c3C)n2)cc1	?	-29.9%
O=C(O)c1cc2c(cc1Br)OCCCO2	-9.8%	i
CCc1cc(=O)oc2cc(OCc3ccc(C(=O)O)o3)ccc12	1.8%	i
CCCCC(=O)NC(=S)Nc1cccc(NC(=O)CC)c1	-13.3%	-25.9%
(cont.)
SMILES	Vaccinia Venus	VACV mCherry inh
CCC(=O)N1CCc2cc(S(=O)(=O)NCCC(=O)NCc3ccc(C)cc3)ccc21	-13.1%	-8.3%
Cc1ccc(-c2cc(-c3nnc(SCC(=O)NCC(C)C)n3N)c3ccccc3n2)cc1	-27.2%	-29.1%
Cc1cc(N2CCN(C)CC2)nc2ccc(NC(=S)N3CCC4(CC3)OCCO4)cc12	-5.0%	-7.8%
CSc1cccc(NC(=S)N(CCC(C)C)C2CCN(C(C)C)CC2)c1	-22.4%	-27.4%
C[C@@H]1CN([C@H](C)CO)C(=O)c2cc(NC(=O)Nc3ccc(F)cc3)ccc2O[C@H]1CN(C)C(=O)Nc1ccc(C(F)(F)F)cc1	?	-18.0%
COc1ccc(C(C(=O)c2ccccc2)c2ccccc2)cc1 (stereo unspecified)	8.1%	?
Cc1cccc(Cn2c(-c3cccs3)nc3ccccc32)c1	-7.0%	-3.4%
CC(=O)N1CCC(=NNS(=O)(=O)c2cccc([N+](=O)[O-])c2)CC1	-0.8%	-12.7%
COc1ccc(/C=C/C(=O)NC(=S)Nc2ccc(S(=O)(=O)Nc3ccc(OC)nn3)cc2)cc1	-16.9%	-18.9%
O=c1c(Cc2ccc(Cl)cc2Cl)c(O)ccn1Cc1ccc(Cl)cc1	-3.5%	.
COc1ccc([N+](=O)[O-])cc1NS(=O)(=O)c1cccc(C(=O)OC2CCOC2=O)c1 (stereo unspecified)	-15.6%	-20.9%
O=c1c2ccc(F)cc2sn1-c1ccccc1	-25.5%	i
COc1ccc([C@H]2/C=C\CN(C(=O)c3ccccc3)[C@@H](C)C(=O)N2Cc2ccc(F)cc2)cc1	-15.5%	i
O=C(Nc1ccccc1)C1=C[C@@H](c2ccc(C(F)(F)F)cc2)C[C@@H](OCc2ccc(CO)cc2)O1	?	?
Nc1nc(Nc2ccccc2F)sc1C(=O)c1ccc(Cl)cc1	-13.9%	-22.1%
CCOC(=O)c1ccc(NC(=O)Nc2cc(C)on2)cc1	-13.5%	i
CCCN(CCC)C(=O)CN1C(=O)CSc2ccc(S(=O)(=O)N3CCC(C)CC3)cc21	-13.1%	-14.3%
COc1cc(/C=C2\SC(=N)N(c3ccc4c(c3)OCO4)C2=O)cc(OC)c1O	93.2%[activator]	i
CC1(C)CC2(CCO1)OC(=O)CC2C(=O)Nc1ccc(Cl)cc1[N+](=O)[O-] (stereo unspecified)	-5.8%	-8.0%
CNC(=O)/C(C#N)=C\c1cc(C)n(-c2ccc(N3CCOCC3)cc2)c1C	-1.3%	-0.8%
Cc1ccc2cc(CCl)c(Cl)nc2c1	-5.9%	-10.0%
O=C(CCS(=O)(=O)c1ccccc1)Nc1ccc(N2CCN(Cc3ccccc3)CC2)cc1	0.1%	-11.8%
COc1ccccc1-n1c(=O)n(C)c2c(C(N)=O)nc(-c3cccc(OC)c3OC)nc21	5.5%	-0.6%
Cc1ccc2c(c1)N(C(=O)CCC(=O)NCCCN1CCOCC1)CCO2	-5.8%	-14.6%
O=C(Nc1ccccc1OCc1cc(=O)n2ccccc2n1)c1ccccc1F	-12.1%	-3.6%

Some of the entries so far, with two lines to a compound.
Values run as follows: Vaccinia Venus, VACV mCherry inh
> CNc1ccccc1C(=O)OCC(=O)N(CCOC)c1c(N)n(CC(C)C)c(=O)[nH]c1=O
→ -16.6%, -25.4%
> O=C(/C=C\c1ccco1)Nc1cc([N+](=O)[O-])ccc1F
→ ?, ?

Further compounds follow:
SMILES	Vaccinia Venus	VACV mCherry inh
O=C(CSCc1c(Cl)cccc1Cl)Nc1ccc2c(c1)OCO2	-12.0%	-19.6%
CCCCCCNC(=O)N1C/C=C\C(c2ccc(OC)cc2)N(Cc2ccc(F)cc2)C(=O)C1 (stereo unspecified)	-12.6%	-13.3%
CCOc1ccc(S(=O)(=O)N2CCN(c3ccccc3)CC2)c2cccnc12	-19.7%	-2.5%
Cc1cc(C)c(C(=O)COC(=O)c2cc([N+](=O)[O-])ccc2N2CCOCC2)cc1C	2.6%	-11.1%
CC(=O)Oc1ccc(-c2csc(Nc3cccnc3)n2)cc1	-8.0%	-10.3%
CCOC(=O)N1CCC(NC(=O)CC(NS(=O)(=O)c2ccc(C)cc2)c2ccco2)CC1 (stereo unspecified)	-23.5%	.
O=C(O)c1cccc(N2C(=O)C3C4C=CC(C4=C(c4ccccc4)c4ccccc4)C3C2=O)c1 (stereo unspecified)	3.8%	3.4%
COc1ccc(-c2[nH]ncc2C=O)cc1	-25.5%	-21.5%
Nc1ncnc2c1ncn2[C@@H]1O[C@H](C(=O)Nc2ccc(C(=O)N3CCCCC3)cc2)[C@@H](O)[C@H]1O	7.0%	37.5%[activator]
COC(=O)C(NC(=O)CCc1c(C)nc2c(c(C)nn2-c2ccccc2)c1C)C(C)C (stereo unspecified)	0.7%	1.7%
CCOC(=O)c1cccc(NC(=O)C2CCN(S(=O)(=O)c3cnc[nH]3)CC2)c1	-3.0%	15.0%
COc1ccc(NC(=O)CN2C(=O)NC3(CCCCC3C)C2=O)cc1OC (stereo unspecified)	-11.2%	i
CC1(C)NC(=O)N(CC(O)COc2ccccc2C(=O)N2CCCCC2)C1=O (stereo unspecified)	11.5%	.
O=C(Nc1ccc(NC(=O)c2ccccc2O)cc1)Nc1ccc(F)cc1F	-1.2%	-13.5%
Cc1cc(S(=O)(=O)N2CCN(c3ccc(F)cc3)CC2)c(C)s1	-17.4%	-24.5%
COc1c(C)cc(C(=O)C2CCCN(C(=O)c3cc(C)nc(C)n3)C2)cc1C (stereo unspecified)	-8.1%	i
CC(=O)NC1=C(C#N)C(c2ccccc2)c2c(ccc3ccccc23)O1 (stereo unspecified)	?	?
CCOC(=O)COn1c(=O)c(-c2ccc(OC)cc2)[n+]([O-])c2ccccc21	-14.2%	-13.4%
O=C(NCCc1ccccc1)c1ccc2c(c1)S(=O)(=O)c1cc(Cl)ccc1C2=O	-20.8%	-18.2%
CCCN(CCC)C(=O)Nc1cc(Cl)ccc1OC	-11.6%	i
O=C1CN(C(=O)COc2ccc(Br)cc2F)c2ccccc2N1	-13.4%	i
O=C(CN1C(=O)NC2(CCc3ccccc32)C1=O)c1ccc(Br)s1 (stereo unspecified)	-13.7%	-14.8%
Cn1c(N)c(C(=O)COC(=O)CCc2c[nH]c3ccccc23)c(=O)n(C)c1=O	16.9%	.
O=C1NC(Nc2ccccn2)(C(F)(F)F)C(=O)N1c1ccc(F)cc1 (stereo unspecified)	-13.9%	-14.4%
COCCNc1nc(C(C)(C)C)nc2c1nnn2Cc1ccccc1Cl	-9.5%	i

Rewritten as comma-separated lines: part of the list above
smiles,Vaccinia Venus,VACV mCherry inh
CC1(C)NC(=O)N(CC(O)COc2ccccc2C(=O)N2CCCCC2)C1=O (stereo unspecified),11.5%,.
O=C(O)c1cccc(N2C(=O)C3C4C=CC(C4=C(c4ccccc4)c4ccccc4)C3C2=O)c1 (stereo unspecified),3.8%,3.4%

The listing picks up, repeating the 2 entries before the break.
SMILES	Vaccinia Venus	VACV mCherry inh
O=C1NC(Nc2ccccn2)(C(F)(F)F)C(=O)N1c1ccc(F)cc1 (stereo unspecified)	-13.9%	-14.4%
COCCNc1nc(C(C)(C)C)nc2c1nnn2Cc1ccccc1Cl	-9.5%	i
CC(=O)Nc1ccc(NC(=O)CNC(=O)COc2ccccc2)cc1	-2.7%	-7.3%
O=C(c1cccnc1)c1ncc(C(F)(F)F)cc1Cl	-4.5%	-1.4%
O=C(Nc1ccc(Cl)cn1)c1cccc(S(=O)(=O)N2CCCCC2)c1	-1.8%	i
C=CCc1cccc2cc(C(=O)Nc3ccc(CC(=O)O)cc3)c(=O)oc12	0.5%	4.6%
O=C(N/N=C/c1cccc(F)c1)c1cc(-c2ccco2)nc2ccccc12	-29.6%	?
CC(=O)c1cccc(Nc2nc(-c3ccccc3)cs2)c1	?	-29.7%
COc1ccc(/C(O)=C2\C(=O)C(=O)N(CC3CCCO3)C2c2cc(OC)ccc2OC)cc1 (stereo unspecified)	-19.8%	?
O=C(NCc1ccccc1)/C(=N\O)c1ccccc1	-12.8%	-0.5%
